Bioassay records from PubChem.
ClpP mod – qHTS Assay for Activators of ClpP. AID 651965, 2013. Potency, µM (highest dose often 57.5 µM), without a hit: at the top dose activity change, negative = active. purified B. subtilis ClpP, FRET peptide cleavage, 20 min. ATP-dependent Clp protease proteolytic subunit (Bacillus subtilis (strain 168)), P80244. hit rate 1.9% among 340,000; active = well fitted falling curve with a large enough effect; inconclusive = small, poorly fitted or top-dose-only effect; inactive = no such curve, though single readings can be large or run the other way; further: potency means the concentration at half of the fitted maximal effect; the source files actives as falling curves though it sought activators and does not explain the sign; nearly all actives have a fitted effect of over 65% in size; many hits overshoot -100%
Target sequence (P80244 whole entry, looked up): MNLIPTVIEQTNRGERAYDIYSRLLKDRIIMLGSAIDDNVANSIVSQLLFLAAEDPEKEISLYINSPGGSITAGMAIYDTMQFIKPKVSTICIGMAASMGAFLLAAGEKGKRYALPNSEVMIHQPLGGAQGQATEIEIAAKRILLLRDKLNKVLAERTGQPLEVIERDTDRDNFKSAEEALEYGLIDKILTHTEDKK
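FRET quenching reversal measured ClpP activation: 10 microg/mL B. subtilis ClpP at pH 8 with the FRET-FV decapeptide, read at 430 nm after 320 nm excitation. The 20-min minus 0-min signal was scaled between DMSO/no-enzyme wells and ADEP (5.8 microM final).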
Menin MLL FP FL – menin-MLL binding inhibition, fluorescein peptide; FP activity change, % at 61.4 µM; Fluorescence polarization, fluorescein-MLL peptide displacement from menin; AID 1766; 290,000 tested, under 10 active; inconclusive = falling polarisation curve, or a change in total fluorescence; inactive = total fluorescence flat and polarisation flat or rising; no compound was filed as active; the % refers to the polarisation; negative = inhibition;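 further: % of control where 0% means no effect; inhibitors lower the polarisation; unlabelled MLL peptide was the positive control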
TRPML1 agonist – agonists of human TRPML1 channel | Q9GZU1 | TRPML1-expressing cells, Ca2+ dye fluorescence, FDSS; host cell line not named in the record; reference of the full effect not given here | activation, % (no concentration beside the values) | hit rate 0.12% among 410,000; in the data active = activation above about 50%; inconclusive = about 30% to 50%; inactive = below about 30%; further: 0% is about no effect; the text of the record puts the active cut at 80%
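TRPML1-DL cells, Tet-induced overnight (~16 h, 37 degrees C), loaded 45-90 min at room temperature with Ca8 no-wash calcium dye plus quencher. FDSS fluorescence: 10 s baseline, compound pin-transfer, 110 s agonist read, then EC80 54-4 (4uM final) and 110 s antagonist read.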
TRPV1 PAM – enhances activation of the human vanilloid receptor TRPV1. hit rate 0.02% among 320,000. TRPV1-expressing cells, Fluo-8 calcium influx, capsaicin EC20 potentiation; host cell line not named in the record; control for the full effect not named in the record. potentiation, % at 8.33 µM. AID 540277; active means potentiation above 80%; inconclusive means 30% to 80%; inactive means below 30%; further: 0% is about no effect
Target sequence (Q8NER1 whole entry, looked up): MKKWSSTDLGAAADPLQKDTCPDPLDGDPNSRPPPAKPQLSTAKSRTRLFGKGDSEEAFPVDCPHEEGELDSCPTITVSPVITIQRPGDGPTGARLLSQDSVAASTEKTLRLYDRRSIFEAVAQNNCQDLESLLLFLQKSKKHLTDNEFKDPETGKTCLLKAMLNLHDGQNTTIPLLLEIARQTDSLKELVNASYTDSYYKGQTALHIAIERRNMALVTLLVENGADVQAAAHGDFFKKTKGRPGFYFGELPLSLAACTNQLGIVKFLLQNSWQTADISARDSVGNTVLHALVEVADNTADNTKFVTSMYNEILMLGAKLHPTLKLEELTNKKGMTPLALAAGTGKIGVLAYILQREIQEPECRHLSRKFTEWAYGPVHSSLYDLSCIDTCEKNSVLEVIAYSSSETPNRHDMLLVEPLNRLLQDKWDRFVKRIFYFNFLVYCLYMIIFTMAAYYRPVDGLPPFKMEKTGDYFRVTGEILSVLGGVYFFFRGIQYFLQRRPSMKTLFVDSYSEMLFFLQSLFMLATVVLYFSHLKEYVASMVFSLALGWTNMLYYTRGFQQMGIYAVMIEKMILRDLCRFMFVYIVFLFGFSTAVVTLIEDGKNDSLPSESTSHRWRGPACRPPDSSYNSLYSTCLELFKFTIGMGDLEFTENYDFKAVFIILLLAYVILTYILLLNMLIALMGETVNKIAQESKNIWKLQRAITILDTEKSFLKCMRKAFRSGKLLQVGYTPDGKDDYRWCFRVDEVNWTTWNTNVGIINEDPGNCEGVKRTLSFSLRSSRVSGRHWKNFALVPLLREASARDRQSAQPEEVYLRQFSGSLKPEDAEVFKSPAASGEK
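Fluo-8 calcium influx in TRPV1-expressing cells, kinetic read (ex 480/em 520 nm). Compound added and read 3 min for agonist activity, followed by capsaicin at EC20 final and 2 min further read for enhancement.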
TRPML1 blocker – inhibitors of human TRPML1 channel; Q9GZU1; TRPML1-inducible cells, Ca2+ dye fluorescence, FDSS; hits give low values; inhibition of EC80 agonist-evoked calcium signal; activity change, negative = inhibition, % (test concentration not listed); hit rate 0.02% among 390,000; AID 624415; in the data active means activity change below about -50%; inconclusive means about -30% to -50%; inactive means above about -30%;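 further: stimulus is agonist 54-4 at its EC80 concentration; on the % scale 0 is the no-effect control and ±100 the full control effect; compound concentration not given in the record; the text of the record puts the active cut at -80%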
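Calcium fluorescence in TRPML1-DL cells induced overnight with Tet: a 110 s read after compound pin addition, then a 110 s antagonist read after challenge with 54-4 at 4 uM final (EC80).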
PINK1 modulator – changes PINK1 expression; PINK1 immunofluorescence, high-content cytometry, 24 h; Potency, µM (series often up to 76.6 µM), for the others: at the top dose activation (PINK1 increase), actives largely listed as activators; hit rate 0.2% among 410,000; active = well fitted activation curve with a large enough effect; inconclusive = small, poorly fitted or top-dose-only effect; inactive = flat fitted curve, though single readings scatter; cell line not stated here;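 further: potency means the concentration at half of the fitted maximal effect; % of control where 0% means no effect; nearly all actives have a fitted effect of over 65% in size; a mitochondrial uncoupler was the plate control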
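Readout is PINK1 immunofluorescence, quantified alongside mitochondrial, cell and nuclear markers by laser-scanning microplate cytometry. Cells from a stable line were exposed to compound titrations (5 concentrations) for 24 hours, with CCCP controls.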
Sfp PPTase inh – inhibitors of Bacillus subtilis Sfp phosphopantetheinyl transferase; Q9F4F7; Biochemical Sfp PPTase activity, qHTS; hit rate 3.5% among 310,000; Potency, µM, for the others: max response, negative = inhibition, usual class: inhibitors; active means well fitted inhibition curve with a large enough effect; inconclusive means small, poorly fitted or top-dose-only effect, or another doubt; inactive means no such curve, though single readings can be large or run the other way;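 further: the enzyme is Sfp with the accession as filed and its product quenches rhodamine fluorescence; potency means the concentration at half of the fitted maximal effect; 0% = enzyme reaction without inhibitor and -100% = no enzyme wells; top concentration of the series not given in the record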
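Step 1, compound plus 15 nM Sfp-PPTase, 15 min, room temperature. Step 2, add rhodamine-CoA (5 uM) and BHQ-2-YbbR (12.5 uM). Step 3, read 525/598 nm fluorescence at 0 and 30 min.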
Active calls of the source: *; ? = inconclusive; / = not tested or not shown; & = joins results of further samples; [ ] = dose if it differs, or a comment. Compounds were not picked by outcome. About 4.4% of those tested had a hit in this group.

SMILES	ClpP mod	Menin MLL FP FL	TRPML1 agonist	TRPV1 PAM	TRPML1 blocker	PINK1 modulator	Sfp PPTase inh
CC(=O)c1c(C)nn(C(C)CC(=O)O)c1C (configuration not stated)	-1.8%	-2.2	-0.5	28	12	1.7%	13%
Cc1ccc(S(=O)(=O)N(C)C)cc1NC(=O)COC(=O)/C=C/c1cnc2ccccc2n1	1.2%	-4.0	0.0	2	-1	1.7%	11%
Cc1ccccc1NC(=S)Nc1ccccn1	-3.3%	-1.6	3.1	-24	-10	-0.9%	56µM*
CCN(CC)S(=O)(=O)c1ccc(Cl)c(C(=O)NC(C)C(c2cccs2)N2CCCC2)c1 (configuration not stated)	/	-7.4	-0.2	-24	58	0.1%	0%
COc1ccc(-c2c(C)nn3c(-c4ccccc4)cc(C)nc23)cc1	-0.3%	6.2	-0.1	4	24	12%	-10%
Nc1cc(Nc2ccccc2)ccn1	/	/	3.4	-9	15	2.5%	/
Cc1ccc(C)c(Cn2c(=O)n(CCCCC(=O)NCc3ccccc3Cl)c(=O)c3ccccc32)c1	-0.9%	/	-0.4	/	10	1.5%	/
Cc1c(Cl)cccc1NC(=O)Cn1c(CCC(=O)O)ccc1-c1cccs1	?	/	2.5	/	8	-0.8%	/
S=c1cnc2ccccc2[nH]1	-1.7%	3.4	-0.5	7	14	1.5%	20µM*
CCCNC(=O)CN(c1ccccc1)S(=O)(=O)c1ccc(OC)c(OC)c1	0.7%	-0.4	-1.0	14	3	-1.2%	-8%
COc1cc(NS(=O)(=O)c2cc(C)ccc2OC)c(OC)cc1Cl	0.9%	-0.6	-0.5	6	7	-0.6%	-4%
CCOc1ccc(N2CC(NS(=O)(=O)c3cccs3)CC2=O)cc1 (configuration not stated)	-0.9%	/	-0.5	3	2	-1.4%	/
CCOc1cccc(OCCCOc2cccc3cccnc23)c1	-4.6%	0.5	0.0	21	3	0.5%	-13%
CCCCCCC1CC(C)(/C(C)=N/NC(N)=O)OC1=O (configuration not stated)	-0.2%	0.3	-0.1	1	5	6.6%[38.3 µM]	10%
COC(=O)c1cc(S(=O)(=O)Nc2cc(OC)cc(OC)c2)cn1C	?	-3.6	-0.6	-11	0	0.5%	10%
O=C(Nc1ccccc1Br)c1cc(CN2CCCC2)on1	-1.7%	/	1.9	/	-6	-0.3%	/
COc1ccc(S(=O)(=O)Nc2ccccc2OC)cc1C	-6.7%	1.6	1.1	0	4	/	3%
COCCCN1C(=O)c2[nH]nc(-c3ccccc3O)c2C1c1ccc(OCc2ccccc2)cc1 (configuration not stated)	-0.7%	/	-0.6	/	36	-0.3%	/
O=C(CNC(=O)c1ccccc1)N/N=C/c1cccs1	/	1.4	-0.6	10	-4	0.7%	22%
O=C(O)CCCC(=O)NCCCc1ccccc1	12%	0.9	-0.8	-4	-3	-0.2%	12%
C[C@@H](CN1C(=O)C(=O)NC[C@@H]1C)NC(=O)CC12CC3CC(CC(C3)C1)C2	-0.7%	-6.2	0.1	5	-7	0.1%	14%
O=C(COc1ccc(S(=O)(=O)NCc2ccccc2)cc1Cl)NCc1ccccn1	/	-0.3	0.6	11	19	0.3%	?
Cc1ccc(NC(=O)COC(=O)C2CC2(Cl)Cl)cc1C (configuration not stated)	/	9.0	1.7	16	-12	-0.3%	0%
O=C(c1cc(COc2c(F)cccc2F)on1)N1CC[C@@H]2CCCC[C@H]2C1	-1.9%	/	0.9	/	-10	0.6%	/
Cc1cnc(C(=O)OCC(=O)NCc2ccc(Cl)cc2)cn1	0.9%	/	0.4	/	-9	-0.2%	/
COc1cc(NC(=O)c2cc(C)on2)cc(C(=O)Nc2cccc(C(F)(F)F)c2)c1	-4.3%&0.6%	3.7	0.4&-0.6	23	0&31	1.4%&1.3%	?
COc1ccc(/C=c2/sc3nc(-c4ccccc4)c(-c4ccccc4)n3c2=O)cc1	-7.1%	0.4	-0.2	-9	-13	6.4%	-16%
Cc1ccc(C(=O)/C=C/c2ccc(-c3ccc(C)cc3)o2)cc1	1.3%	22	8.2	-2	15	17%	8.9µM*
O=C(Nc1cccc(OC(F)(F)F)c1)c1ccc(-c2cccnc2)c2ccoc12	10%	/	3.9	/	/	4.2%	/
Nc1nc2ccc(Br)cc2s1	1.8%	/	0.0	/	-10	-1.2%	/

By substructure, the entries above containing a furan ring, fused or not (2)
SMILES	ClpP mod	Menin MLL FP FL	TRPML1 agonist	TRPV1 PAM	TRPML1 blocker	PINK1 modulator	Sfp PPTase inh
Cc1ccc(C(=O)/C=C/c2ccc(-c3ccc(C)cc3)o2)cc1	1.3%	22	8.2	-2	15	17%	8.9µM*
O=C(Nc1cccc(OC(F)(F)F)c1)c1ccc(-c2cccnc2)c2ccoc12	10%	/	3.9	/	/	4.2%	/

The list goes on.
SMILES	ClpP mod	Menin MLL FP FL	TRPML1 agonist	TRPV1 PAM	TRPML1 blocker	PINK1 modulator	Sfp PPTase inh
CC(C)CC1(C)NC(=O)NC1=O (configuration not stated)	-2.2%	8.5	0.9	0	-3	2.0%	-7%
Cc1c(/C(O)=C2/C(=O)C(=O)N(CCN(C)C)C2c2ccc(C(C)C)cc2)cnn1-c1ccccc1 (configuration not stated)	/	0.6	-0.5	10	40	0.5%	10%
CCCCN1CC(c2nc3ccccc3n2CCCCOc2ccc(C)cc2C)CC1=O (configuration not stated)	0.3%	/	-0.5	/	33	?	/
O=S(=O)(c1cccc(C(F)(F)F)c1)N1CCN(c2ccccc2)CC1	1.4%	2.5	0.5	13	2	-1.2%[38.3 µM]	14%
Nc1nonc1-n1nnc(C(=O)N/N=C/c2ccoc2)c1CSc1ccccc1	-0.5%	/	0.7	-19	5	0.9%	12%
CS(=O)(=O)c1ccc2nc(NC(=O)CN3CCC(Cc4ccccc4)CC3)sc2c1	/	3.0	1.5	7	-4	-0.9%	15%
Cc1occc1C(=O)Nc1ccc(S(=O)(=O)N2CCN(C)CC2)cc1	-1.0%	19	0.3	7	-12	0.7%[38.3 µM]	-4%
COc1ccc(/C=N/N2CCN(c3ccc(Cl)cc3)CC2)cc1O	0.8%	-3.9	-0.2	-10	2	2.3%	-5%
CCOc1ccc(C2c3cc(OCC)c(OCC)cc3CC(=O)N2c2ccc(C(=O)O)cc2)cc1OCC (configuration not stated)	-1.0%	/	-0.6	/	4	0.2%	/
Cc1ccc([C@@H]2C[C@H]3[C@@H](CN2S(=O)(=O)c2ccc(Cl)cc2)C(=O)C[C@@H](c2cccc(Cl)c2)N3S(=O)(=O)c2ccc(C)cc2)cc1	1.3%	/	2.2	/	8	1.9%	/
Cc1ccc(S(=O)(=O)NCC(=O)N(CC(=O)NCc2ccco2)Cc2ccc(F)cc2)cc1	/	-15	-0.5	-5	-8	4.2%	12%
O=C(Nc1cccc2cccnc12)c1ccccc1Br	-0.9%	/	1.1	/	-10	3.6%	/
COCCc1ncc(CN2CCC(C(=O)Nc3cccc(-c4cscn4)c3)CC2)cn1	0.1%	-7.7	0.9	2	0	0.0%	17%
CCOC(=O)/C(=N/Nc1ccc(OC)cc1)N1CCCc2ccccc21	-8.0%	6.6	2.6	-4	-5	2.7%	-8%
O=C(N/N=C\c1ccoc1)c1ccco1	-2.5%	/	-0.1	5	-8	-0.9%	8%
O=[N+]([O-])c1cccc(C(=Nc2ccccc2)NO)c1	1.9%	-2.5	-0.4	-21	-3	1.6%	5%
CC1CCCCN1C(=O)CSc1nc2ccccc2[nH]1 (configuration not stated)	/	0.2	0.0	-4	6	0.4%	8%
CCOC(=O)c1cnn(-c2cc(C)nc3c(-c4ccccc4)cnn23)c1N	-2.1%	2.1	0.0	27	2	3.3%	18%
O=C(CSc1ccccn1)Nc1cccc(NC(=O)CSc2ccccn2)n1	0.1%	-4.3	3.3	?	5	/	-12%
CC(C)OC(=O)CSc1nc(N)c(C#N)c(-c2ccco2)c1C#N	20µM*	?	-0.9	-8	24	15%	56µM*
CN(C)CCCN=Cc1c(-c2ccccc2)[nH]n(-c2nc3ccccc3s2)c1=O	/	-0.1	2.2	1	5	-3.7%	50µM*
O=C(CN(C1CCCCC1)S(=O)(=O)c1ccc(Cl)cc1)NCc1cccnc1	0.7%	5.8	0.3	-4	-3	-1.3%	12%
CCCC(C(=O)NC1CCCC1)N(Cc1ccccc1Cl)C(=O)c1snc(C(N)=O)c1N (configuration not stated)	/	-1.4	3.0	-2	7	0.6%	7%
Cc1c(CCC(=O)O)c(=O)oc2c(C)c(OCc3cc4c(cc3Cl)OCO4)ccc12	/	10	0.6	-1	-3	0.4%	9%
CCOc1cc(-c2c(C)c(C)nc(N)c2C#N)ccc1O	-1.6%	6.4	1.1	-11	-22	1.7%	8%
CCn1cc(C(=O)NC(C)CCc2ccccc2)c(=O)c2cc(S(=O)(=O)N(C)C)ccc21 (configuration not stated)	/	-2.9	-0.1	-7	-11	2.5%	2%
CCc1ccc(S(=O)(=O)N2CCN(c3ccc(Cl)c(Cl)c3)CC2)cc1	-3.1%	/	1.9	/	22	1.5%	/
CC(=O)N1c2ccc(S(=O)(=O)NCC3CCC(C(=O)NCc4ccc(C)o4)CC3)cc2CC1C (configuration not stated)	-0.2%	-3.2	0.3	2	-11	2.4%	11%
Cc1ccc(N2CC(C(=O)Nc3c4c(nn3C(C)(C)C)CS(=O)(=O)C4)CC2=O)cc1C (configuration not stated)	-1.4%	-0.1	0.2	22	-11	1.1%	8%
CCc1cccc(NC(=O)CSc2nc3ccccc3nc2N2CCCCC2)c1	?	/	2.0	2	13	4.3%	/
COc1ccc2[nH]c3c(=O)n(CCN4CCOCC4)cnc3c2c1	/	1.3	0.6	-18	-20	1.7%	8%
CO[C@H]1O[C@@H]2O[C@@]3(C)CC[C@@H]4[C@@H](C)CC[C@@H]([C@H]1C)[C@@]24OO3	0.4%	/	-0.7	/	/	-0.2%	/
O=c1oc2ccc(C#CC3(O)CCCCC3)cc2cc1-n1cc(-c2ccccn2)nn1	5.0%	/	0.2	/	6	7.7%	/
COc1cc(C(=O)Nc2sc(C(=O)N3CCOCC3)c(C)c2C#N)cc(OC)c1OC	?	0.2	0.0	2	-8	-1.9%	12%
CSCCC1NC(=O)N(CC(=O)N2N=C(c3ccc(Cl)cc3)CC2c2ccco2)C1=O (configuration not stated)	-5.0%	4.4	0.6	2	-11	-1.7%	0%
